# Mtb H37Rv – M. tuberculosis H37Rv growth inhibitors, H37Rv strain (AID 1626) | 220,000 compounds, 0.95% hits | M. tuberculosis H37Rv growth inhibition; higher % means a stronger effect | inhibition, % at 10 µM, or IC50 in µM where a hit was titrated;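 active = confirmed in a dose series; inconclusive = inhibition above 80% but not taken into the dose series; inactive = below 80% or under 30% at every dose of the series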;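 also: bacteria incubated seven days before Alamar blue readout; 0% = bacteria only wells and 100% = bacteria with antibiotic wells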
# YopH inh – inhibitors of Yersinia enterocolitica YopH tyrosine phosphatase. fluorescence Ex485/Em525. inhibition, %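 (about 10 µM by stock and volumes)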. 140,000 compounds, 0.16% hits. AID 898;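 active = inhibition of 50% or more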;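 also: controls were vehicle for no effect and minimum signal wells for full effect; inactives centre near -20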
# RecA splice inh – inhibitors of M. tuberculosis RecA intein splicing; P9WHJ3; cell-free RecA intein splicing, fluorescence; inhibition, %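 (about 9 µM by stock and volumes)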; 290,000 compounds, 0.75% hits; AID 2221; in the data active = inhibition above about 30%; inconclusive = no clear call, values can overlap the other calls;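 also: 0% = vehicle wells and 100% = reference inhibitor control wells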
# Target sequence (P9WHJ3 whole entry, looked up, canonical isoform): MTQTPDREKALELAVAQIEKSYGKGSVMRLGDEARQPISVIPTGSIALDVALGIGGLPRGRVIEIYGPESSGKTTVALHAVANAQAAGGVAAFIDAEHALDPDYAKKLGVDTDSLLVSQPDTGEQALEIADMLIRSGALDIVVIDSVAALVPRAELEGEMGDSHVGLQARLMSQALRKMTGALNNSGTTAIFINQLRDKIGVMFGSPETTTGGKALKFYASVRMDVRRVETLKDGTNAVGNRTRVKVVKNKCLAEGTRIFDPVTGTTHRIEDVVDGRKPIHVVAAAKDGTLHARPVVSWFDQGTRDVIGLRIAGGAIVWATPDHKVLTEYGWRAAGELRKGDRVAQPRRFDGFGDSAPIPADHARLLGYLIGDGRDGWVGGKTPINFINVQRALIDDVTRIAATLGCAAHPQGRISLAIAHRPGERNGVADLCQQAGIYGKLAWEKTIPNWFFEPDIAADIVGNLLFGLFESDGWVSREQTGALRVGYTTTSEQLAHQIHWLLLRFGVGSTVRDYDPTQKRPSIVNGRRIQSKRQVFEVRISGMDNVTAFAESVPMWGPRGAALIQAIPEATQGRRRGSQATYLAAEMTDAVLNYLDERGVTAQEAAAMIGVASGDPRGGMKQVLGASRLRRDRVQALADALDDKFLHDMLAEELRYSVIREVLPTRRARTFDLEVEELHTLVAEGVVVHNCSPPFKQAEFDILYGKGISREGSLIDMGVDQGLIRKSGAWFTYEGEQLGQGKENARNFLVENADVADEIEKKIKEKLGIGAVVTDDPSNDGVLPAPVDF
# Mtb bLac sens – beta-lactam sensitization of Mtb H37Rv. M. tuberculosis H37Rv growth with meropenem, percent inhibition; hits of this screen are not shown here. inhibition, % at 25 µM. 330,000 compounds, 0.27% hits. AID 434955;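 active = about 74% or more and at least 40 points above the plate without the antibiotic, then above 30% in a dose series; inconclusive = first-round hits that could not be retested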;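 also: growth measured after seven days incubation then overnight dye step; 0% = bacteria only wells and 100% = bacteria with antibiotic; twin plates without the antibiotic show which effects depend on it; some results filed as inactive read as strong as hits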
# Arbovirus inh – antivirals against arbovirus infection; arbovirus infection cell-based antiviral screen; inhibition, % at 10 µM; 200,000 compounds, 0.37% hits; AID 1251;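 active = inhibition from about 30%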;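 also: bluetongue infection of BSR cells; cell survival read as ATP light after 72 h; 0% = infected wells without compound and 100% = uninfected wells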
# An asterisk follows results filed as active; ? = inconclusive; . = no result given; & = joins results of further samples.
SMILES,Mtb H37Rv,YopH inh,RecA splice inh,Mtb bLac sens,Arbovirus inh
N#CC1=C(N)Oc2c(ccc3cccnc23)C1c1ccncc1 (configuration not stated),-8.2%,.,-4.2,3.1,.
COC(=O)Cc1ccc(NC(=S)N2CCN(C(=O)C3CCCO3)CC2)cc1 (configuration not stated),.,.,0.3,-1.2,.
N=c1n(Cc2ccccc2Cl)c2ccccc2n1CC(O)c1ccco1 (configuration not stated),-4.1%,.,0.9,-11.3,-17.1
O=C(CN1C(=O)c2ccccc2C1=O)Nc1cccc([N+](=O)[O-])c1,3.8%,-5.6,-0.4,4.7,4.2
COc1ccc(CCN(Cc2nc3ccccc3c(=O)[nH]2)C(=O)C2CC2)cc1,-5.1%,.,0.7,-1.4,-1.3
O=C(NCc1ccc2c(c1)OCO2)c1cc2ccccc2o1,-0.6%,-13.7,1.7,0.8,-1.0
C#CCOCCOCCOCCNc1nc(N2CCN(C(=O)Cn3cc(CCCN=C(N)N)nn3)CC2)nc(N2CCN(C(=O)[C@H]([C@@H](C)CC)n3cc(CCCN=C(N)N)nn3)CC2)n1,.,-12.4,.,.,3.7
CCCC[n+]1ccn(-c2nc3ccccc3nc2[N-]S(=O)(=O)c2ccc(Cl)cc2)c1,-2.1%,.,-7.6,7.9,.
Cc1ccc(N(C(=O)c2csnn2)C(C(=O)NC2CCCCC2)c2ccncc2)cc1 (configuration not stated),.,.,-4.1,3.0,.
COC(=O)c1c(-c2c(Cl)cccc2Cl)noc1NC(=O)NN1CCCCC1,2.2%,.,17.0,2.2,.
Cc1c(NC(=O)Cn2nc(C(F)(F)F)c3c2CCCC3)c(=O)n(-c2ccccc2)n1C,-12.8%,18.1,2.2,-6.6,2.0
Oc1[nH]c2ccc(Br)cc2c1N=Nc1ccc(C(F)(F)F)cn1,21.2%,-11.0,6.6,55.6,-11.3
O=C(NNC(=O)c1nn(-c2ccc(F)cc2)ccc1=O)c1ccc(C(F)(F)F)cc1,-4.5%,.,-1.5,41.1,.
O=C(Nc1nccs1)C1C2CC3OC(=O)C1C3C2 (configuration not stated),-6.2%,-20.8,9.8,-16.0,0.1
O=C(NCc1ccccc1)c1ccc[n+]([O-])c1,.,.,-0.2,4.6,.
Cc1ccc(C(=O)N2CCC3(CC2)NCCc2[nH]cnc23)cc1C,.,.,0.8,6.2,.
Cc1ccc(NS(=O)(=O)c2c(C(=O)N3CCCC3)c(C)n(C)c2C)cc1,.,.,-1.0,-2.7,.
O=C(C(=O)N1CCOCC1)c1cn(CC(=O)N2CCc3ccccc3C2)c2ccccc12,-1.0%,.,1.5,-3.7,-1.3
COc1cccc(CNC(=O)Cn2cccc2C(=O)c2ccccc2C)c1,.,.,-0.2,4.7,.
COc1ccc(N(CC(=O)NCCC2=CCCCC2)S(=O)(=O)c2ccccc2)cc1,2.2%,.,-2.3,12.3,.
O=c1c(C(c2c(O)nc3n(c2=O)CCS3)c2cccc3ccccc23)c(O)nc2n1CCS2,-1.0%,-38.4,0.5,10.5,3.5
O=C(Cn1c[n+](CC(=O)c2ccc([N+](=O)[O-])cc2)cn1)c1ccc([N+](=O)[O-])cc1,-5.6%&-5.5%,.,-2.6&-8.7,-5.8&-6.6,.
Cc1cc(C)n2cc(-c3ccc(Cl)cc3)c(C(=O)O)c2n1,8.2%,.,-3.9,12.7,1.2
Cc1oc(-c2ccccc2Cl)nc1CS(=O)(=O)CC(=O)N1CCOCC1,.,.,-6.5,-12.0,.
O=C(N=C1c2ccccc2CN1c1ccc(F)c(Cl)c1)c1cccnc1Cl,-0.5%,-9.2,5.5,12.7,-3.1
COc1cccc(C(=O)NCC(=O)N2CCC3(CC2)NCCc2[nH]cnc23)c1OC,.,.,0.9,-1.8,.
COc1cc(CCC(=O)OCC(=O)Nc2ccccc2F)cc(OC)c1OC,.,.,-0.3,3.1,.
Cc1ccc(-n2nc3c(c2NC(=O)c2ccco2)CS(=O)C3)c(C)c1 (configuration not stated),.,.,0.0,-7.7,.
O=C(/C=C/c1ccc(Cl)cc1Cl)Nc1cccc(S(=O)(=O)NC2=NCCC2)c1,-6.7%,.,2.8,1.6,-21.5
COc1cccc(C2=NOC(C(=O)NCCN3CCOCC3)C2)c1 (configuration not stated),-3.5%,-25.1,1.3,.,6.5
Cc1ccc(CN2C(=O)NC(Cc3c[nH]c4ccccc34)C2=O)cc1 (configuration not stated),1.5%,-19.5,-0.9,4.6,7.2
CC(C)(C)Nc1nc(NCc2cccnc2)nc(N2CCOCC2)n1,3.0%,-28.1,2.1,3.8,9.3
O=C(OCC(=O)c1ccco1)c1ccc2ncsc2c1,1.2%,0.1,-0.5,85.2,3.7
CCN(CC)S(=O)(=O)c1ccc(C)c(C(=O)Oc2cccc(-c3cnc4ccccc4n3)c2)c1,?,-26.4,.,89.9,-3.0
COc1ccc(NCc2nc3ccccc3n2C)cc1,.,.,-1.9,-4.0,.
Cc1cccc(-c2nnc(NC(=O)c3ccc(Cl)cc3)o2)c1,?,-9.4,-1.4,?,-3.0
COc1cc(C(=O)NCCNc2nc3ccc(C)cc3cc2C#N)cc(OC)c1OC,.,.,-14.1,-9.7,.
COc1ccc(CC2(CO)CCN(S(=O)(=O)c3sccc3C)CC2)cc1,-4.5%,.,7.1,-2.3,-2.5
O=C(C1=C[C@H](c2coc3ccccc3c2=O)C[C@H](OCCCCO)O1)N1CCN(Cc2ccc3c(c2)OCO3)CC1,-7.2%,.,2.2,-3.4,-10.0
O=C(O)C[C@]1(C(=O)Nc2ccc(F)cc2)CC(/C=C/c2ccccc2)=NO1,.,.,-0.6,-0.2,.

# For convenience, some entries already given.
SMILES,Mtb H37Rv,YopH inh,RecA splice inh,Mtb bLac sens,Arbovirus inh
COc1cc(C(=O)NCCNc2nc3ccc(C)cc3cc2C#N)cc(OC)c1OC,.,.,-14.1,-9.7,.
COc1ccc(CC2(CO)CCN(S(=O)(=O)c3sccc3C)CC2)cc1,-4.5%,.,7.1,-2.3,-2.5
O=C(C1=C[C@H](c2coc3ccccc3c2=O)C[C@H](OCCCCO)O1)N1CCN(Cc2ccc3c(c2)OCO3)CC1,-7.2%,.,2.2,-3.4,-10.0

# Next section:
SMILES,Mtb H37Rv,YopH inh,RecA splice inh,Mtb bLac sens,Arbovirus inh
CS(=O)(=O)c1cccc(-c2nnc(NC(=O)c3ccc4ncsc4c3)o2)c1,.,.,0.9,-6.4,.
Cc1[nH]c2ccc(Cl)cc2c(=O)c1CN1CCCC1,-2.6%,.,0.9,-0.7,3.6
Cc1cccc(NC(=S)N2CCN(S(=O)(=O)c3ccc(F)cc3)CC2)c1,.,.,1.4,-0.1,.
CN(CCOc1ccccc1)CC(=O)Nc1ccc([N+](=O)[O-])cc1Cl,-9.3%,.,1.0,4.7,13.1
CCN(CC)S(=O)(=O)c1ccc(NC(=O)CNC2CCCCC2)cc1,.,.,-1.1,9.2,.
Cc1nn(Cc2ccccc2)c(Cl)c1C(=O)OCC#N,3.0%,.,0.3,-0.5,14.9
O=C1NC(C(F)(F)F)(C(F)(F)F)N=C2SC=CN12,-10.1%,.,-0.7,-3.6,.
CCOC(=O)C1CCN(C(=O)c2ccc(N(C)S(C)(=O)=O)cc2)CC1,-0.7%,-11.8,-2.4,-2.4,10.1
O=C(CN1C(=O)C2CC=CCC2C1=O)Nc1nnc(SCc2ccc(Cl)cc2)s1 (configuration not stated),-14.9%,75.8*,3.5,5.3,17.0
COc1cccc(N2C(=O)/C(=C\c3cccs3)NC2=S)c1,-4.9%,.,1.2,4.0,-4.9
CCc1ccccc1N(C)S(=O)(=O)c1ccc(-c2cc(C)no2)s1,.,.,1.5,0.7,.
Cc1cc(Cl)ccc1OCC(=O)N/N=C/c1ccc(OC2OC(CO)C(O)C(O)C2O)cc1 (configuration not stated),5.2%,.,-5.2,4.1,.
CCC(c1nnc(SCC(=O)Nc2ccc(Cl)cc2C(F)(F)F)n1C1CCCCC1)N(C)C (configuration not stated),7.8%,-20.9,2.3,5.6,-1.3
CC(C)(C)C1=Nn2c(nnc2-c2ccccc2F)SC1,9.7%,-22.6,-1.6,.,0.5
CC/C(=N\N=C(/CC)c1ccccc1N)c1ccccc1N,.,.,0.1,-4.7,.
Nc1ccc(C(=O)N/N=C2\CCCc3c2[nH]c2ccccc32)cc1,-5.3%,-24.5,-1.2,-2.6,-9.2
C=CCn1sc(N)c(C(=O)OCC)c1=S,-4.6%,-13.5,-1.3,-9.4,7.6
COCC(=O)Nc1ccc(Br)cc1C,4.0%,.,-2.7,-2.0,-3.2
Fc1ccccc1/C=N/n1cnnc1,-6.9%,-21.4,-7.2,-1.4,13.3
Cc1ccc(Nc2nnc(SCC(=O)Nc3cccc(S(=O)(=O)NC4=NCCCCC4)c3)s2)c(C)c1,1.3%,-14.7,4.4,-6.0,13.9

# Reprinted from the results shown (14 entries):
SMILES,Mtb H37Rv,YopH inh,RecA splice inh,Mtb bLac sens,Arbovirus inh
N#CC1=C(N)Oc2c(ccc3cccnc23)C1c1ccncc1 (configuration not stated),-8.2%,.,-4.2,3.1,.
COC(=O)Cc1ccc(NC(=S)N2CCN(C(=O)C3CCCO3)CC2)cc1 (configuration not stated),.,.,0.3,-1.2,.
N=c1n(Cc2ccccc2Cl)c2ccccc2n1CC(O)c1ccco1 (configuration not stated),-4.1%,.,0.9,-11.3,-17.1
O=C(CN1C(=O)c2ccccc2C1=O)Nc1cccc([N+](=O)[O-])c1,3.8%,-5.6,-0.4,4.7,4.2
COc1ccc(CCN(Cc2nc3ccccc3c(=O)[nH]2)C(=O)C2CC2)cc1,-5.1%,.,0.7,-1.4,-1.3
O=C(NCc1ccc2c(c1)OCO2)c1cc2ccccc2o1,-0.6%,-13.7,1.7,0.8,-1.0
C#CCOCCOCCOCCNc1nc(N2CCN(C(=O)Cn3cc(CCCN=C(N)N)nn3)CC2)nc(N2CCN(C(=O)[C@H]([C@@H](C)CC)n3cc(CCCN=C(N)N)nn3)CC2)n1,.,-12.4,.,.,3.7
CCCC[n+]1ccn(-c2nc3ccccc3nc2[N-]S(=O)(=O)c2ccc(Cl)cc2)c1,-2.1%,.,-7.6,7.9,.
Cc1ccc(N(C(=O)c2csnn2)C(C(=O)NC2CCCCC2)c2ccncc2)cc1 (configuration not stated),.,.,-4.1,3.0,.
COC(=O)c1c(-c2c(Cl)cccc2Cl)noc1NC(=O)NN1CCCCC1,2.2%,.,17.0,2.2,.
Cc1c(NC(=O)Cn2nc(C(F)(F)F)c3c2CCCC3)c(=O)n(-c2ccccc2)n1C,-12.8%,18.1,2.2,-6.6,2.0
Oc1[nH]c2ccc(Br)cc2c1N=Nc1ccc(C(F)(F)F)cn1,21.2%,-11.0,6.6,55.6,-11.3
O=C(NNC(=O)c1nn(-c2ccc(F)cc2)ccc1=O)c1ccc(C(F)(F)F)cc1,-4.5%,.,-1.5,41.1,.
O=C(Nc1nccs1)C1C2CC3OC(=O)C1C3C2 (configuration not stated),-6.2%,-20.8,9.8,-16.0,0.1

# Next results follow:
SMILES,Mtb H37Rv,YopH inh,RecA splice inh,Mtb bLac sens,Arbovirus inh
CC(Cc1ccsc1)NC(=O)CCc1nnc(CCc2ccccc2)o1 (configuration not stated),5.4%,.,0.9,2.2,5.8
Cc1ccc(NC(=O)COC(=O)CN2C(=O)COc3ccccc32)cc1,-3.7%,-14.6,0.1,-7.2,0.6
Cc1cc(C)cc(C(=O)Nc2nnc(SCC(=O)NCC3CCCO3)s2)c1 (configuration not stated),.,.,-4.0,-5.3,.
Cc1csc(SCC(=O)Nc2ccc(S(=O)(=O)N3CCCC3)cc2)n1,6.2%,-35.3,-0.3,7.6,-1.6
CCOC(=O)C1CCN(C(=O)COC(=O)CSc2ccc([N+](=O)[O-])cc2)CC1,.,.,-1.1,12.7,.
CC(=C/c1ccco1)/C=N/NC(=O)c1ccncc1,?,.,-4.3,99.5,.
CCN(CC)c1ccc(C2CC(=O)Nc3cc(OC)c(OC)cc32)cc1 (configuration not stated),6.9%,-3.3,-2.1,-0.7,-0.6
CCOC(=O)c1ccc(Oc2nc(N(C)C)nc(N(C)C)n2)cc1,-5.4%,5.8,3.5,55.2,0.7
CC1(C)CC(=O)c2c(O)cc(OCC(=O)N3CCN(c4ccc(F)cc4)CC3)cc2O1,.,.,3.8,4.2,.
CCCC(=O)Nc1ccc2c(c1)nc(CN1CCN(C(=O)OCC)CC1)n2CC,.,.,-1.1,-1.6,.
O=c1c2ccccc2nc(Cc2cccc([N+](=O)[O-])c2)n1-c1ccc(O)cc1,3.6%,.,2.0,-6.5,.

# Bioassay records as filed in PubChem.

# An excerpt. The share of hits here may be higher or lower than overall.
